Assay outcomes from PubChem.
HSD17B inhib: HSD17B dehydrogenase inhibition; Q99714; recombinant HSD17B10, NADH fluorescence kinetic; many of its hits are not listed in these tables; Potency, µM (series often up to 57.1 µM), inactives show at the highest dose activity change, negative = inhibition, usual class: inhibitors; 7.6% of 75,000 active; AID 893; active means well fitted inhibition curve with a large enough effect; inconclusive means small, poorly fitted or top-dose-only effect; inactive means no such curve, though single readings can be large or run the other way;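 further: the protocol describes HADH2 (HSD17B10) and not the HSD17B4 of the title; nearly all actives have a fitted effect of over 70% in size; most hits overshoot -100% by far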
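20 nM HADH2, pH 9.0 Tris/Tween; cpd preinc 15 min RT; start w/ 1 mM NAD+ + 90 uM b-hydroxybutyryl-CoA; kinetic fluor ex360/em450 q30s x 4 min; delta last-first.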
* = called active by the depositor; ? = inconclusive; [ ] = remark or other dose. On the % scale 0 is the no-effect control and ±100 the full control effect; potency means the concentration at half of the fitted maximal effect.

SMILES	HSD17B inhib
COc1ccc(OC)c(Nc2cc(C(=O)NCCCN3CCOCC3)c3ccccc3n2)c1	?
O=C(OCc1nc2ccc(Cl)cc2n1CCO)c1ccc2c(c1)OCO2	-7%
CCOc1ccccc1NC(=O)Cn1nnc(C(=O)Nc2ccc(C)cc2)c1N	-7%
Cc1cc(NC(=O)Cn2nc(-c3ccccc3F)ccc2=O)ccc1-n1cnnn1	4%
Cc1nc2cc(N3CCOCC3)c(NC(=O)C3CC3)cc2c(=O)n1Cc1ccccc1	1%
COCCn1c(=O)c(-c2ccccc2)nc2cnc(Oc3ccccc3)nc21	-12%
CCCCP(=O)(c1ccccn1)c1ccccn1	-3%
CCOC(=O)C1CCCN(c2c(N3CCc4ccccc4C3)c(=O)c2=O)C1 (stereo unspecified)	-12%
COc1ccc(OC)c(C(=O)CSc2nnc(-c3cccnc3)n2C)c1	5%
CNC(=O)c1ccc2nc(NC(C)=O)sc2c1	1%
CC(C)(CNS(=O)(=O)c1ccc(Cl)cc1)N1CCCCC1	10%
Cc1occc1-c1nnc(SCC(=O)c2c[nH]c3ccccc23)n1C	-17%
O=C1C2C3C=CC(C3)C2C(=O)N1c1n[nH]c(-c2cccnc2)n1 (stereo unspecified)	2%
O=C(O)CCC(=O)Nc1ccc(N2CCOCC2)cc1	-4%
O=c1ccc(Oc2nc(N3CCCCC3)nc(N3CCCCC3)n2)n[nH]1	2%
CC(=O)NC(CCS(C)(=O)=O)C(=O)Nc1ccc2c(c1)OCO2 (stereo unspecified)	1%
CCC(C)(C)NC(=O)C(c1cccc(OC)c1)N(C(=O)c1ccn[nH]1)c1cccc(OC)c1 (stereo unspecified)	7%
CCCCN(CCCC)CCCNC(=O)CC1Oc2ccc(C)cc2NC1=O (stereo unspecified)	-5%
Cc1ccc(N2C(=O)C3C(C2=O)C(C(=O)c2ccc(Cl)cc2)N2CCCC32)cc1 (stereo unspecified)	?
COc1ccc(-c2noc(-c3cccc(OC)c3OC)n2)cc1OC	?
O=C(CCCC(=O)Nc1cccnc1)Nc1cccnc1	5%
Cc1noc(C)c1C(=O)N1CCC2(CCN(Cc3cc(C(F)(F)F)cc(C(F)(F)F)c3)CC2)CC1	1%
COCCn1c(SCC(=O)N2CCC(C)CC2)nc2ccccc2c1=O	4%
CNc1ncnc2c1ncn2[C@H]1C[C@H](OP(=O)(O)O)[C@H](COP(=O)(O)O)O1	3%
O=C(c1ccccc1)N1CCCC(C(=O)N2CCCCCC2)C1 (stereo unspecified)	11%
Cc1ccc(SCc2[nH]nc3c2C2(CCSCC2)C(C#N)=C(N)O3)cc1	-11%
Clc1ccc2[nH]c3c(NCC4CCCO4)ncnc3c2c1 (stereo unspecified)	25µM*
CN(C)CCCO[C@H]1[C@@H]2OC(C)(C)O[C@@H]2O[C@@H]1[C@H](O)CO	-1%[25.6 µM]
COc1cccc(-c2nn(C)c3sc(C(=O)N4CCN(c5ccccc5)CC4)cc23)c1	-25%
Nc1nc2[nH]c(=O)[nH]c2c(=O)[nH]1	-1%
COCCN(CC(=O)NCC1CCCO1)C(=O)CCC(=O)Nc1cc(C)on1 (stereo unspecified)	15%
CCCN1C(=O)C(O)(C/C(C)=N/O)c2ccccc21 (stereo unspecified)	-2%
Cc1ccc(NC(=O)Nc2cccs2)cc1	-13%
COc1ccc(OC)c(S(=O)(=O)Nc2ccc(O)c(Sc3ncn[nH]3)c2)c1	?
Cc1ccc(S(=O)(=O)c2c(C)nn(C(C)(C)C)c2OC(=O)c2ccc(Br)o2)cc1	-9%
CCOC(=O)c1cnc(SCC(=O)NCc2cccs2)nc1N	4%
CC(C)(C)n1ncc2c(=O)n(CC(=O)Nc3ccc(Cl)cc3)cnc21	-12%
COCC(=O)N1CCC2(CCCN(c3ncccn3)C2)CC1	?
Cc1cc(C(F)(F)F)nc(NCc2cccnc2)n1	?
COc1ccc(C2=NO[C@@H]3C(=O)N(c4cccc(C)c4C)C(=O)[C@H]23)cc1OC	-4%
O=C1CC(c2ccco2)CC2=C1C=Nc1ccccc1N2 (stereo unspecified)	-11%
O=C(CCS(=O)(=O)c1ccc(Cl)cc1)OCC(=O)N1CCCCC1	8%
COCCn1c(C)cc(C(=O)COC(=O)c2n[nH]c3ccccc23)c1C	3%
O=C(N1CCCC1)N1CCN(c2ncnc3c(-c4ccc(Cl)cc4)nsc23)CC1	-1%
O=C(O)c1ccn(Cn2cnc3ccccc32)n1	0%
CCOC(=O)c1sc(NC(=O)CSc2nnnn2-c2ccc(C)cc2)c(C(=O)OCC)c1C	-13%
Cn1c(C(=O)NCCN2CCN(c3ccccc3F)CC2)cc2c(=O)n(C)c3ccccc3c21	-27%
Cc1sc2nnn(CC(=O)N3CCN(C(=O)c4ccco4)CC3)c(=O)c2c1C	?
COc1ccc(-c2csc(Cc3nnc(N4CCOCC4)n3-c3ccccc3)n2)cc1	0%
COC(=O)[C@@]1(Cc2ccc(OC)cc2)[C@H]2c3cc(C(=O)N4CCCC4)n(CCc4ccc(O)c(OC)c4)c3C[C@H]2CN1C(=O)c1ccccc1	3%

The list continues:
SMILES	HSD17B inhib
CCCC[C@@H]1C[C@H]1C(NC(=O)Cc1ccccc1)c1ccc(-c2ccccc2)cc1 (stereo partly specified)	3%
C[N+]1(CCCC[N+]2(C)CCCCCCC2)CCCCCCC1	7%[11.4 µM]
COc1ccc(CC(=O)Nc2c3c(nn2-c2cccc(Cl)c2)CS(=O)C3)cc1 (stereo unspecified)	0%
CC(C(=O)Oc1ccc2c(c1)OCO2)N1C(=O)c2ccccc2C1=O (stereo unspecified)	-26%
COCCn1c(=O)c(CCc2ccccc2)nc2cnc(OC)nc21	11%
COc1ccc2cc(CCNC(=O)c3ccc4c(c3)OCO4)c(=O)[nH]c2c1	-17%
Cc1csc(NC(=O)CSc2nnc(Cn3c(=O)sc4ccccc43)n2-c2ccccc2)n1	-23%
CC(=O)Nc1ccc(NC2=CC(=O)CC(C)(C)C2)cc1	-3%
O=C(CCN1C(=O)c2ccccc2C1=O)Nc1ccc(S(=O)(=O)N2CCOCC2)cc1	5%
O=C(c1ccco1)N1CCN(S(=O)(=O)c2cccc3nsnc23)CC1	9%
O=S(=O)(NCC1CCCO1)c1cccc2nsnc12 (stereo unspecified)	8%
O=C(NCc1ccco1)c1cc2c(s1)CSC2	32µM*
CCCC(C(=O)NCC1CCCO1)N(Cc1ccco1)C(=O)CNS(=O)(=O)c1ccccc1 (stereo unspecified)	22%
CCOC(=O)c1sc2ncn(/N=C/N(C)C)c(=O)c2c1C	?
O=C(N[C@@H](Cc1ccccc1)C(=O)O)c1ccccc1	-1%
O=C(Cn1cnc2c(cnn2-c2ccc(F)cc2)c1=O)N1CCN(c2ccccc2F)CC1	61%[activator]
O=C(c1ccc2c(c1)OCO2)N1CCN=C1SCc1cccnc1	-1%
Cc1ccc(N(CC(N)=O)C2SC(=O)N(Cc3ccccc3)C2=O)cc1 (stereo unspecified)	-2%
CC1CN(C(=O)c2cn3ccccc3n2)CC(C)O1 (stereo unspecified)	3%
COC(=O)[C@H]1C[C@@H]1[C@H](NC(C)=O)c1ccccc1	-6%
CCn1nc(C(=O)OC2CCOC2=O)c2ccccc2c1=O (stereo unspecified)	0%
C=CCn1c(=N)n(CC(O)COc2ccccc2OC)c2ccccc21 (stereo unspecified)	-2%
O=S(=O)(Nc1ncccn1)c1ccc(Nc2ncnc3ccccc23)cc1	?
CC(C)Oc1ccc(C(=O)NCc2ccco2)cc1	3%
Cc1nc2cncc(Br)c2n1C	-26%
Cc1ccc(N2C(=O)Nc3ccc(Br)cc3C2(O)C(=O)NCCCN(C)C)cc1C (stereo unspecified)	6%
Cc1c(Cl)cccc1N1C(=O)c2ccccc2C1=O	-2%
O=C(NC1CCCCCCC1)C1CCN(S(=O)(=O)N2CCCC2)CC1	-17%
COc1cccc(-c2cc(NCc3cnc(C)cn3)ncn2)c1	-12%
Cc1cc(N)n(-c2ccccc2)n1	12%
Nc1nonc1-c1noc(CCCOc2ccc(Cl)cc2Cl)n1	-7%
COc1ccccc1-c1nc(SCc2ccccn2)n[nH]1	-6%
CC(C)CC(C(=O)NCc1ccccn1)N1C(=O)c2ccccc2C1=O (stereo unspecified)	-3%
COc1cc(OC)c(C2CC(=O)N3CN(c4ccccc4)CSC3=C2C#N)cc1OC (stereo unspecified)	?
CCOC(=O)OCC1OC(c2ccc(C(C)=O)cc2)C=CC1OC(=O)OCC (stereo unspecified)	4µM*
CS(=O)(=O)NCCOc1ccc(S(=O)(=O)N2CCCc3ccccc32)cc1	0%
CN1c2cccc3cccc(c23)N(C)C1(C)C	32µM*
Cc1ccc(N2C(=O)NC3(CCCCC3)C2=O)cc1	0%
OCCN1CCN(Cc2cccc(Oc3ccc(Cl)cc3)c2)CC1	4%
Cc1oc2c(CN(C)C)c(O)ccc2c(=O)c1-c1ccc2ccccc2n1	-6%

6 records picked at random from the list so far:
SMILES	HSD17B inhib
O=c1ccc(Oc2nc(N3CCCCC3)nc(N3CCCCC3)n2)n[nH]1	2%
Cc1cc(NC(=O)Cn2nc(-c3ccccc3F)ccc2=O)ccc1-n1cnnn1	4%
COc1cc(OC)c(C2CC(=O)N3CN(c4ccccc4)CSC3=C2C#N)cc1OC (stereo unspecified)	?
COc1ccc2cc(CCNC(=O)c3ccc4c(c3)OCO4)c(=O)[nH]c2c1	-17%
Cc1c(Cl)cccc1N1C(=O)c2ccccc2C1=O	-2%
Cc1occc1-c1nnc(SCC(=O)c2c[nH]c3ccccc23)n1C	-17%

Other structures follow.
SMILES	HSD17B inhib
O=c1[nH][nH]c(=O)c2cc([N+](=O)[O-])ccc12	2%
Cc1cc(=O)oc2c(O)c(O)ccc12	6%
COc1ccccc1N1CCN(Cc2nnnn2CCc2ccccc2)CC1	5%
O=C(c1ccccc1)c1cc(F)c(N2CCOCC2)cc1Cl	2%
CN(C)c1nc(-c2cccnc2)nc2ccccc12	-5%
CCN(CC(=O)NCCc1ccc(S(N)(=O)=O)cc1)Cc1nc2ccccc2c(=O)[nH]1	3%
O=C(NCc1ccco1)c1cc(-c2cccnc2)nc2ccc(Cl)cc12	?
CC1CCN(CCC(=O)Nc2ccc(Br)cc2)CC1	4%
O=C(CN1C(=O)c2ccccc2S1(=O)=O)Nc1ccc(S(=O)(=O)N2CCCCCC2)cc1	4%
CCN(CC)S(=O)(=O)c1ccc(NC(=O)CN(c2ccc(OC)cc2OC)S(C)(=O)=O)cc1	9%
Cc1ccccc1NS(=O)(=O)c1cccc(-c2nnc(-c3ccccc3)o2)c1	-11%
COc1ccccc1N1CCN(C(CNS(=O)(=O)c2cc(F)ccc2F)c2cccnc2)CC1 (stereo unspecified)	?
CCCCN(C)Cc1c(C)[nH]c2ccc(OCC)cc2c1=O	25µM*
COc1ccc(Cn2nnnc2C(c2ccc(C)cc2)N2CCN(C3CCCC3)CC2)cc1 (stereo unspecified)	-2%
O=C(Cn1nc(-c2ccc3c(c2)OCCO3)ccc1=O)Nc1ccc(N2CCOCC2)cc1	0%
COc1ccc(S(=O)(=O)N2CCN(c3nc4ccccc4nc3-n3nc(C)cc3C)CC2)cc1	0%
O=C(O)c1ccc(N2C(=O)CC(Cc3ccccc3)C2=O)cc1 (stereo unspecified)	5%
Cc1ncsc1CCSc1nc2ccccc2c(=O)n1C	-14%
CC(C)c1ccc(NC(=O)C(c2ccccc2)N2CCN(C=O)CC2)cc1 (stereo unspecified)	2%
CCOC(=O)c1ccccc1NC(=O)Cn1c(-c2nonc2N)nc2ccccc21	4%

As a working copy, some entries already given.
SMILES	HSD17B inhib
CCCCN(C)Cc1c(C)[nH]c2ccc(OCC)cc2c1=O	25µM*
COc1ccc(Cn2nnnc2C(c2ccc(C)cc2)N2CCN(C3CCCC3)CC2)cc1 (stereo unspecified)	-2%
O=C(Cn1nc(-c2ccc3c(c2)OCCO3)ccc1=O)Nc1ccc(N2CCOCC2)cc1	0%
COc1ccc(S(=O)(=O)N2CCN(c3nc4ccccc4nc3-n3nc(C)cc3C)CC2)cc1	0%
O=C(O)c1ccc(N2C(=O)CC(Cc3ccccc3)C2=O)cc1 (stereo unspecified)	5%
Cc1ncsc1CCSc1nc2ccccc2c(=O)n1C	-14%

Further results follow:
SMILES	HSD17B inhib
Cc1nc2c(-c3ccccc3)c(C)nn2c(C)c1CCC(=O)O	-4%
O=c1cc(CSc2nnc(-c3cccs3)n2Cc2ccccc2)nc2sc3ccccc3n12	?
Cc1ccccc1-n1c(=O)cc(N2CCC3(CC2)OCCO3)[nH]c1=O	-3%
O=C(c1cccc(F)c1)N1CCC[C@@]2(CCN(C(c3ccccc3)c3ccccc3)C2)C1	2%
COc1cc(OC)cc(C(=O)NCc2n[nH]c(=S)n2-c2ccccc2)c1	-3%
COc1ccc(-c2cn3c(n2)CCC3)cc1	-2%
CCOC(=O)N1CCN(C(=O)CN(Cc2ccccc2)S(C)(=O)=O)CC1	6%
CC1(C)CO[C@H](CC(=O)O)CN1	-8%
CCc1cc(C(=O)N2CCOCC2)c(NC2=NS(=O)(=O)c3ccccc32)s1	-9%
COc1ccc(N2CCN(C(=O)c3ccc(NS(=O)(=O)c4ccccc4)cc3)CC2)cc1	3%

An excerpt from above in order of heavy-atom count, largest number first.
SMILES	HSD17B inhib
CCCC[C@@H]1C[C@H]1C(NC(=O)Cc1ccccc1)c1ccc(-c2ccccc2)cc1 (stereo partly specified)	3%
CC1CN(C(=O)c2cn3ccccc3n2)CC(C)O1 (stereo unspecified)	3%
O=C(O)c1ccn(Cn2cnc3ccccc32)n1	0%

Other results:
SMILES	HSD17B inhib
CN(C)C(=O)c1ccc(-c2nc(Nc3ccc(F)cc3)c3ccccc3n2)cc1	?
COc1cccc2cc(C(=O)Nc3cccnc3N3CCOCC3)c(=O)oc12	6%
O=C(O)c1cc2cc(Cl)cc(Cl)c2oc1=O	25µM*
Cc1ccc(C(=O)O)cc1	-11%
O=C(O)C1CC(=O)N(C2CCCCCC2)C1 (stereo unspecified)	-6%
COc1ccc(-c2nnn(CC(=O)N(CC(=O)NCCC(C)C)c3ccccc3)n2)cc1OC	-25%

A portion of the library; the hit share may differ from the screen's.
